Sfp PPTase inh: qHTS Assay for Inhibitors of Bacillus subtilis Sfp phosphopantetheinyl transferase (PPTase). 4'-phosphopantetheinyl transferase ffp (Bacillus subtilis), Q9F4F7. Biochemical Sfp PPTase activity, qHTS. Potency, µM, inactives show max response, negative = inhibition, actives largely listed as inhibitors. actives 3.5% (n = 310,000). AID 1490, 2009; active = well fitted inhibition curve with a large enough effect; inconclusive = small, poorly fitted or top-dose-only effect, or another doubt; inactive = no such curve, though single readings can be large or run the other way;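 also: the enzyme is Sfp with the accession as filed and its product quenches rhodamine fluorescence; potency is read from the fitted curve at half-maximal effect; 0% = enzyme reaction without inhibitor and -100% = no enzyme wells; top concentration of the series not given in the record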
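Step 1, compound plus 15 nM Sfp-PPTase, 15 min, room temperature. Step 2, add rhodamine-CoA (5 uM) and BHQ-2-YbbR (12.5 uM). Step 3, read 525/598 nm fluorescence at 0 and 30 min.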
ClpP mod: qHTS Assay for Activators of ClpP | ATP-dependent Clp protease proteolytic subunit (Bacillus subtilis (strain 168)), P80244 | purified B. subtilis ClpP, FRET peptide cleavage, 20 min | Potency, µM (series often up to 57.5 µM), for inactives: at the highest dose activity change, negative = active | actives 1.9% (n = 340,000) | AID 651965, 2013; active = well fitted falling curve with a large enough effect; inconclusive = small, poorly fitted or top-dose-only effect; inactive = no such curve, though single readings can be large or run the other way; also: potency is read from the fitted curve at half-maximal effect; the source files actives as falling curves though it sought activators and does not explain the sign; nearly all actives have a fitted effect of over 65% in size; many hits overshoot -100%
Target sequence (P80244 whole entry, looked up): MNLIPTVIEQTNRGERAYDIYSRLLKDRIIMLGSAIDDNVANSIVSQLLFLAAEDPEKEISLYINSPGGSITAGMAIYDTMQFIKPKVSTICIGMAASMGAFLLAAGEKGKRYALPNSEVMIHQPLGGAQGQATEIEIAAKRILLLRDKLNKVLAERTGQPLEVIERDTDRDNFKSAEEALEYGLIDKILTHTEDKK
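ClpP 10 microg/mL final, pH 8 Tris/KCl buffer with BSA, glycerol, Tween-20; compound pinned in; FRET-FV substrate; RT 20 min; Ex320/Em430; ΔFRET vs ADEP 5.8 microM, DMSO, no enzyme.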
D2 potentiator: Beta-Arrestin HTS for Positive Allosteric Modulators of the Human D2 Dopamine Receptor: Potentiators; DiscoveRx D2 beta-arrestin cells, luminescence, 90 min; 100% = 57 uM dopamine signal; D(2) dopamine receptor (Homo sapiens), P14416; actives 0.23% (n = 360,000); potentiation, % (concentration not given with the values); active = potentiation of 50% or more; inconclusive = 30% to 50%; inactive = 30% or less;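 also: compound concentration not given in the record; tested on top of an EC20 dose of dopamine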
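D2 cells co-treated with compound plus 50 nM dopamine (EC20) for 90 min at 37 deg C to detect potentiation. Beta-arrestin recruitment was read as enzyme-fragment luminescence after 1 h at ambient temperature. Full response was set by 57 uM dopamine.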
TRPV1 potentiator: HTS Assay for Compounds that Act as Potentiators of the Vanilloid Receptor 1. potentiation, % at 8.33 µM. Transient receptor potential cation channel subfamily V member 1 (Homo sapiens), Q8NER1. actives 0.02% (n = 320,000). TRPV1-expressing cells, Fluo-8 calcium influx, capsaicin EC20 potentiation; host cell line not named in the record; control for the full effect not named in the record; active means potentiation above 80%; inconclusive means 30% to 80%; inactive means below 30%; also: 0% is about no effect
Target sequence (Q8NER1 whole entry, looked up): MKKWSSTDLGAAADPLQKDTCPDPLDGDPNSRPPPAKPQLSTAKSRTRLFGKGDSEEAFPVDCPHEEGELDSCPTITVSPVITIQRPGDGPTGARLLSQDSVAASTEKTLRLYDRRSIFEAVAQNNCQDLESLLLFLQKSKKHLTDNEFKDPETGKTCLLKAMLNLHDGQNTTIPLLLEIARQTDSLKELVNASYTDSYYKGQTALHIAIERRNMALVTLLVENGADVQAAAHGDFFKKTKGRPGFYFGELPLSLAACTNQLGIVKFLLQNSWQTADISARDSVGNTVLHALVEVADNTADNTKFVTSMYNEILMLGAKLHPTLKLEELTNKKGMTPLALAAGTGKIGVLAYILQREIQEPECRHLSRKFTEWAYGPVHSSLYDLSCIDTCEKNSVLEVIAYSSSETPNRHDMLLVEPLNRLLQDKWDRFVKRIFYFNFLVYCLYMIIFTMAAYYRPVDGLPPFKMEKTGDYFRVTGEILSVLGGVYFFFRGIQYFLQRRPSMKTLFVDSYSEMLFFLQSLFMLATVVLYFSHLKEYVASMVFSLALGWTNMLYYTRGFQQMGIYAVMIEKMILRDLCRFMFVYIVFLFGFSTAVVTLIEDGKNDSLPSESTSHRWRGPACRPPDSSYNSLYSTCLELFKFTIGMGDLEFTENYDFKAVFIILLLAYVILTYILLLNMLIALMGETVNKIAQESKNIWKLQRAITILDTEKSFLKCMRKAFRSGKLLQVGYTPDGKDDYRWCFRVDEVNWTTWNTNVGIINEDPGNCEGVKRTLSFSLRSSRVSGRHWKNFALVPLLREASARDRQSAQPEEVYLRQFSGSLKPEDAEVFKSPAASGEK
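Cells expressing TRPV1 were dye-loaded with Fluo-8 and read kinetically: 10 s baseline, 3 min after compound (agonist portion), then 2 min after EC20 capsaicin (allosteric enhancer portion). Calcium-bound dye fluorescence at 480/520 nm.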
Menin-MLL FL inh: qHTS Assay for Inhibitors Targeting the Menin-MLL Interaction in MLL Related Leukemias: Competition With Fluorescein Labeled MLL-derived Peptide. Fluorescence polarization, fluorescein-MLL peptide displacement from menin. FP activity change, % at 61.4 µM. 290,000 tested, under 10 active; inconclusive = falling polarisation curve, or a change in total fluorescence; inactive = total fluorescence flat and polarisation flat or rising; no compound was filed as active; the % refers to the polarisation; negative = inhibition;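 also: % of control where 0% means no effect; inhibitors lower the polarisation; unlabelled MLL peptide was the positive control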
gsp agonist: qHTS for Agonist of gsp, the Etiologic Mutation Responsible for Fibrous Dysplasia/McCune-Albright Syndrome: qHTS | gsp mutant cells, cAMP HTRF, 30 min; control for the full effect not named in the record | Potency, µM (doses to about 76.9 µM), for the others: at the highest dose activation (cAMP increase), usual class: activators | actives 0.13% (n = 340,000); active = well fitted activation curve with a large enough effect; inconclusive = small, poorly fitted or top-dose-only effect, or another doubt; inactive = no such curve, though single readings can be large or run the other way; cell line not stated here;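 also: phosphodiesterase inhibitor Ro 20-1724 added with compounds to block cAMP breakdown; potency is read from the fitted curve at half-maximal effect; nearly all actives have a fitted effect of over 60% in size; about a fifth of the inactives were tested at one dose only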
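Cells stably selected in G418 were plated at 2000/well, grown 16-24 hr, then given compounds in DMSO with the PDE inhibitor […] (300 uM solution added) for 30 min at 37C; cAMP was read by HTRF.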
gsp antag: qHTS for Antagonists of gsp, the Etiologic Mutation Responsible for Fibrous Dysplasia/McCune-Albright Syndrome: qHTS; Potency, µM (doses to about 76.9 µM), for the others: at the top dose activity change, negative = inhibition, usual class: inhibitors; actives 0.4% (n = 340,000); AID 624288, 2012; gsp-mutant cells, cAMP HTRF, 30 min; control for the full effect not named in the record; active = falling curve of any shape with a large fitted effect; inconclusive = falling curve, mostly with a smaller effect; inactive = flat or rising curve; cell line not stated here;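 also: intracellular cAMP measured with PDE inhibitor Ro 20-1724 present during compound exposure; potency is read from the fitted curve at half-maximal effect; % is scaled to controls: 0 for no effect and ±100 for the full control effect; nearly all actives have a fitted effect of over 65% in size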
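G418-selected cells were plated in DMEM/10% FBS for 16-24 h at 37C, then treated with compounds plus the PDE inhibitor […] (300 uM solution added) for 30 min at 37C. Intracellular cAMP was measured by HTRF after 30 min lysis at room temperature.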
* marks the source's active call; other numbers are inactive results; ? = inconclusive; nt = not tested or not shown; & = joins results of further samples; [ ] = another dose, or the depositor's remark.

The line under a structure holds: Sfp PPTase inh	ClpP mod	D2 potentiator	TRPV1 potentiator	Menin-MLL FL inh	gsp agonist	gsp antag
- C=CCn1c(=O)n(CCOC)c(=O)c2sc3ccccc3c21
    26.3%	4.0%	-2.5	1.6	4.9	19.2%	-4.9%
- Cc1ccc(S(=O)(=O)N2CCN(C(=O)c3c(-c4ccccc4)noc3C)CC2)cc1
    7.5%	nt	-1.9	3.4	nt	5.5%[15.4 µM]	-15.3%
- COc1ccccc1NC(=O)CSc1nnnn1C
    10.5%	1.1%	-9.8	13.8	2.6	-5.0%	4.5%
- C=CCNC(=O)c1ccc(Cn2cc(C(F)(F)F)ccc2=O)cc1
    17.0%	nt	-6.0	5.4	2.9	0.8%	-0.9%
- CC(C)C[C@H](NC(=O)OCC1c2ccccc2-c2ccccc21)C(=O)O
    nt	-7.8%	4.7	nt	nt	nt	-19.2%
- CC(C)[C@H](NC(=O)C1CCN(C(=O)[C@H](Cc2ccccc2)NC(=O)OC(C)(C)C)CC1)C(=O)O
    6.5%	-0.4%	-7.8	-1.0	3.3	15.1%[15.4 µM]	-3.3%
- CCOC(=O)C1CCN(C(=O)Cn2nc(C)n3nc(-c4ccc(CC)cc4)cc3c2=O)CC1
    9.8%	-6.0%	-9.0	2.0	-0.2	?	-7.6%
- CN1CCN(c2nc3cc(N4CCOCC4)ccc3s2)CC1
    nt	-1.7%	2.3	nt	nt	-48.6%[inhibitor]	nt
- COc1ccccc1CNC(=O)c1cc2c(C)nn(Cc3ccc(F)cc3)c2s1
    19.5%	-10.4%	-7.6	8.8	4.1	-8.6%	-6.4%
- Cc1ccc(F)cc1NC(=O)c1sc2ncn(CC(=O)N3CCN(c4ccccn4)CC3)c(=O)c2c1C
    -1.1%	-2.5%	-3.7	9.2	nt	?	0.7%
- O=C(Cc1ccccc1)Nc1ccccc1C(=O)N1CCCCC1
    4.9%	0.7%	-4.6	-4.3	0.1	?	8.7%
- CCOc1cc(N2CCOCC2)c(OCC)cc1NC(=O)CN1C(=O)NC2(CCCCC2)C1=O
    nt	?	18.6	4.1	nt	4.9%	-4.8%
- COc1ccccc1C(=O)n1nc(C)cc1C
    26.5%	-1.7%	9.2	-0.2	4.4	-50.1%[inhibitor]	-1.2%
- O=C(N/C(=C\c1cn(-c2ccccc2)nc1-c1ccccc1)C(=O)N1CCOCC1)c1ccccc1
    9.2%	nt	nt	4.8	1.0	nt	nt
- Oc1oc(-c2cccc3ccccc23)nc1/C=N/c1nccs1
    11.2%	-7.0%	-34.5	1.3	?	0.8%	-5.8%
- O=C(CNC(=O)c1cccc(F)c1)OCCOc1cccc(Cl)c1
    nt	-9.7%	-9.5	13.7	nt	14.1%	-9.4%
- O=C(/C=C/c1ccc2c(c1)OCO2)c1ccc(F)cc1
    -17.3%	1.3%	-8.9	4.6	4.1	1.0%	-1.4%
- Cc1nc(-c2ccc(S(=O)(=O)Nc3cc(F)ccc3F)cc2)co1
    7.1%	nt	-8.0	?	nt	15.2%	-4.8%
- CCOc1ccc(NC(=O)C23CC4CC(C2)CC(c2ccccc2)(C4)C3)cc1
    0.5%	0.7%	7.8	-5.6	0.3	-12.5%	-3.1%
- C=C(C)C1CC=C(C)/C(=N/NC(=O)CNc2ccc(C)cc2C)C1 (stereo unspecified)
    27.5%	0.8%	-0.8	3.4	3.0	2.9%	-1.8%
- Cc1sc(N)nc1-c1ccccc1
    -3.0%	-0.5%	-4.2	14.3	-1.8	4.5%[15.4 µM]	1.4%
- CC(C)(O)C#Cc1ccc(C(=O)N2CCC(C(N)=O)(N3CCCCC3)CC2)o1
    7.1%	-1.0%	-16.6	1.8	-0.6	-8.2%	6.1%
- CCC(NS(=O)(=O)c1ccc(C)cc1)C(=O)O (stereo unspecified)
    22.5%	-2.2%	-2.6	-1.4	3.8	18.6%	11.1%
- O=C(Nc1cc(Sc2ccccn2)cc([N+](=O)[O-])c1)c1ccc([N+](=O)[O-])cc1
    4.7%	-0.5%	-20.2	0.4	-1.1	-22.4%	-14.4%
- Cc1cc(C)nc(SCC(=O)c2ccc(C)c(C)c2)n1
    -9.2%	0.9%	-2.5	3.1	-0.3	-2.0%[15.4 µM]	-10.4%
- CN(CCNC(=O)c1cn(C)c2ccc(S(=O)(=O)N(C)C)cc2c1=O)CCc1ccccc1
    6.1%	-0.5%	-10.6	7.9	-0.7	17.5%	-2.4%
- COc1cccc(C(=O)Nn2cnnc2)c1
    17.2%	nt	-4.0	6.7	-0.2	6.1%	5.0%
- O=C(COc1cccnc1[N+](=O)[O-])Nc1ccc2c(c1)OCO2
    0.1%	-1.5%	-7.6	-0.3	-0.6	5.9%	3.2%
- CC(=O)Nc1ccc(Nc2nc(C)c([N+](=O)[O-])c(Nc3ccccc3)n2)cc1
    -3.6%	1.2%	-3.5	1.0	7.4	2.6%	?
- COc1ccc(S(=O)(=O)N2CCC[C@H]2C(=O)NC2=NCCS2)cc1
    11.6%	0.7%	-7.8	3.0	1.6	?	4.2%
- CC(C)c1ccc(OCC(=O)NNC(=O)c2cnccn2)cc1
    36.7%[activator]	nt	-2.0	0.9	-0.2	-1.9%[15.4 µM]	-2.6%
- CN1CCN(c2ccc(NC(=O)c3cccc(S(=O)(=O)N4CCCC4)c3)cc2)CC1
    nt	0.0%	-4.2	4.1	nt	-9.6%	-5.6%
- CCOc1ccc(OCC(=O)NCCc2nc3ccccc3[nH]2)cc1
    8.4%	-1.6%	-10.5	6.9	1.3	3.7%	-9.1%
- COc1ccccc1OCCNC(=O)c1ccc2c(c1)OCCO2
    nt	7.94µM*	-8.0	-7.9	nt	0.5%	-0.6%
- CCC(C)NC(=O)C1CCC(=O)N(c2ccc3c(c2)OCO3)C1c1ccc(OC)cc1 (stereo unspecified)
    7.4%	1.1%	-1.8	-7.6	2.2	8.7%	3.6%
- Cc1ccc(-n2[nH]c(C)c(C=Nc3ccc(Br)cn3)c2=O)cc1
    14.6%	-2.8%	-0.3	11.2	-2.7	25.9%	-1.6%
- CC1CCCCN1S(=O)(=O)Cc1ccccc1Cl (stereo unspecified)
    6.8%	nt	4.9	-5.9	-1.2	-35.5%[inhibitor]	10.2%
- NC(=O)c1c(NC(=O)CN2CCOCC2)sc2c1CCC2
    -14.9%	-15.6%	-7.4	11.6	-1.8	-49.6%[inhibitor]	1.9%
- N#Cc1ccc(OCC(O)CS(=O)(=O)c2ccc(F)cc2)cc1 (stereo unspecified)
    -19.1%	3.0%	-6.4	-4.3	-0.3	11.3%[15.4 µM]	-22.0%
- CCCCCCC(=O)Nc1nnc(CC)s1
    7.7%	-0.4%	8.2	1.8	1.8	-19.9%	-3.4%
- Cc1ccc(NC(=O)CN(C)C(=O)COC(=O)CNS(=O)(=O)c2ccc(F)c(F)c2F)cc1
    nt	0.7%	1.2	10.0	nt	5.5%	3.0%
- COC(=O)CN(c1ccccc1[N+](=O)[O-])S(=O)(=O)c1ccccc1
    24.0%	nt	-6.0	13.1	-5.0	4.6%[15.4 µM]	-1.1%
- CCOc1cccc(C(=O)N(Cc2ccco2)C2CCS(=O)(=O)C2)c1 (stereo unspecified)
    11.4%	-0.2%	24.3	-6.1	-0.9	-40.4%[inhibitor]	0.7%
- Cc1ccc(-n2ncc(C(=O)NC3CC3)c2C2CCN(C(=O)OC(C)(C)C)CC2)c(C)c1
    11.2%	1.3%	-8.4	0.3	0.3	-20.8%	-21.4%
- CNCc1ccccc1Sc1cccc(O)c1
    9.6%	-2.5%	-12.3	9.2	5.6	8.6%[15.4 µM]	-11.9%
- Cc1ccc(NC(=O)c2ccc3snnc3c2)cc1C
    -0.2%	2.0%&-1.8%	3.8	-13.4	2.5	-2.1%	4.8%
- COc1ccc(/C=N/N2C(=O)CN(C(=O)c3ccccc3)C2c2ccc(OC)cc2)cc1 (stereo unspecified)
    -10.8%	1.1%	-0.8	-6.6	3.6	-8.1%	?
- Cc1cc(-c2cc(-c3ccc(Cl)cc3)on2)nc(NC2CCCC2)n1
    -6.4%	25.1µM*	-4.5	-32.0	3.1	21.4%	3.6%
- COc1ccc(OCC(=O)Nc2cc(OC)ccc2N2CCCCC2)cc1
    -13.0%	nt	2.2	5.4	-0.8	10.9%[15.4 µM]	-9.5%
- CCOC(=O)Cc1csc2nc3sc(C)c(C)c3c(=O)n12
    13.6%	-15.1%	-7.9	4.5	10.7	5.1%	-0.6%
- COc1cccc(=O)c2c(C)oc(C)c12
    -1.9%	-0.7%	-22.6	-9.3	?	-16.0%	-0.1%[15.4 µM]
- Cc1ccc2nc3sc(C(=O)Nc4ccc(N5CCOCC5)cc4)c(N)c3cc2c1
    0.3%	nt	nt	3.1	?	nt	nt
- O=C(Oc1c(CN2CCOCC2)cc(Cl)c2cccnc12)c1ccccc1
    -6.3%	nt	-3.3	-10.8	-6.7	0.1%	-14.5%
- O=C(CP(=O)(c1ccccc1)c1ccccc1)N1CCOCC1
    5.7%	nt	-4.9	-2.9	-6.4	?	0.4%
- Cc1cc2cc(CCNC(=O)C(=O)c3c[nH]c4ccccc34)c(=O)[nH]c2cc1C
    -5.2%	nt	26.7	30.0	0.7	?	?

A few values from above.
`Cc1ccc(NC(=O)c2ccc3snnc3c2)cc1C` in TRPV1 potentiator: -13.4
`COC(=O)CN(c1ccccc1[N+](=O)[O-])S(=O)(=O)c1ccccc1` in TRPV1 potentiator: 13.1
